VDR inhibitor = inhibitors of human vitamin D receptor; P11473; VDR-SRC2-3 peptide fluorescence polarization, 2 h; Potency, µM, for the others: max response, negative = inhibition, usual class: inhibitors; actives 0.93% (n = 400,000); active = well fitted inhibition curve with a large enough effect; inconclusive = small, poorly fitted or top-dose-only effect, or another doubt; inactive = no such curve, though single readings can be large or run the other way; note: series mostly up to about 120 µM
Target sequence (P11473 whole entry, looked up): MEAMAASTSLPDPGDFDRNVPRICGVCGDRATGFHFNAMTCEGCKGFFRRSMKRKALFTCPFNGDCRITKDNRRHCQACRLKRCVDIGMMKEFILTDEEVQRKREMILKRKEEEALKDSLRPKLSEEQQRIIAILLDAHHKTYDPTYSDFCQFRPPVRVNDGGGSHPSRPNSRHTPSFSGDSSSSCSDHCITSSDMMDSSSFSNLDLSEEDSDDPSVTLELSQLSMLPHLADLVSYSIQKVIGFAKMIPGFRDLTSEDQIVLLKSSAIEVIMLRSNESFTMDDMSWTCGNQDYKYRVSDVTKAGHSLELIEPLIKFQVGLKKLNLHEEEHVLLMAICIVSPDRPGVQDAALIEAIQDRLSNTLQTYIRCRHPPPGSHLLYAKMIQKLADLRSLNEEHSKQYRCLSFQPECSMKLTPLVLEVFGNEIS
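After 23 nl compound addition and a short centrifugation, plates sat for 2 hours at ambient temperature; polarization of fluorescence then indicated loss of VDR binding to peptide SRC2-3.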
Active calls of the source: *; ? = inconclusive; & = joins results of further samples. % is set by controls: 0 for no effect and ±100 for the full control effect; potency is the fitted concentration of half-maximal effect. An excerpt, so the mix of outcomes need not match the whole.

canonical_smiles,VDR inhibitor
CCC1COCCS(=O)(=O)N1Cc1ccc(F)cc1 (stereo not given),-12%
CN(C)c1oc(-c2ccccc2[N+](=O)[O-])nc1C#N,32µM*
COc1ccc(C(C)NC(=S)NCc2ccc(F)cc2)cc1OC (stereo not given),0%
O=C(O)CSc1cccc[n+]1[O-],16%
O=C(Cc1ccc(-c2ccccc2)cc1)NCCS(=O)(=O)N1CCN(c2ccccc2)CC1,3%
CN(C)S(=O)(=O)c1ccc2c(c1)N(CC(=O)Nc1ccc(OC(F)(F)F)cc1)C(=O)CS2,5%
C=CCn1c(SCC(=O)N2CCCCCC2)nc2ccccc2c1=O,-10%
COc1cccc(N2CCN(C(=O)CN(C)S(=O)(=O)c3ccc4c(c3)CCC(=O)N4)CC2)c1,7%
CSc1nc2ccc(NS(=O)(=O)c3ccc(CNC(C)=O)cc3)cc2s1,-6%
CCOC(=O)c1cc(Br)c(=O)n2ccccc12,-19%
Cc1cc(NC(=O)CSc2nc(CCC3CCCC3)nc3ccccc23)no1,-4%
C=CCC(c1ccccc1F)N(CCN1CCOCC1)C(=O)Nc1cccc(Cl)c1 (stereo not given),-1%
O=C(NCC1CCN(Cc2cccc(Cl)c2)CC1)c1cc2ccc3cccnc3c2[nH]1,11%
O=S(=O)(c1cccs1)N1CCN(c2ccc(F)cc2)CC1,-13%
CC(=O)c1cccc(N(CC(=O)N2CCOCC2)S(C)(=O)=O)c1,5%
Cc1ccc2nc(CSc3nc(C)cc(C)c3C#N)[nH]c2c1,-1%
O=C(N1CCOCC1)C12CC3CC(C1)CC(c1ccccc1)(C3)C2,22%
O=C(N/N=C/c1ccccc1)c1c(O)c2ccccc2[nH]c1=O,-2%
O=C1Nc2ccc(S(=O)(=O)NCc3ccco3)c3cccc1c23,1%
O=C(O)C1=C[C@@H](c2ccc3c(c2)OCO3)C[C@@H](OCCCCO)O1,8%
Cc1ccc(OCc2nc(-c3ccc(C(=O)N4CCN(c5ccccc5F)CC4)cc3)oc2C)cc1,-2%
CC(NC(=O)CNC(=O)c1ccc2c(c1)OCO2)c1ccc(S(N)(=O)=O)cc1 (stereo not given),-10%
Cc1ccc(NC(=O)CCN2CC(C)OC(C)C2)cc1C (stereo not given),-13%
CN(CC(=O)NCc1ccccc1Cl)CC(=O)Nc1ccccc1Br,-11%
COc1ccc(-n2cc(CNC3CCOCC3)c(-c3cccc(F)c3)n2)cc1,5%
O=[N+]([O-])c1cc(-c2nc(-c3ccccc3)no2)ccc1NCc1cccnc1,6%
COc1ccc(C(=O)/C=C/Nc2ccc(S(=O)(=O)Nc3nc(C)cc(C)n3)cc2)c(OC)c1,-13%
Cc1c2c(c(C)n1C)C(C(=O)NC1CCCCC1)N(Cc1ccccc1)C2=O (stereo not given),-20%
Cc1nnc(SCC(=O)N2CC(=O)Nc3ccccc32)s1,-7%
COc1ccc(C2CC(c3ccccc3)Oc3cc(OC)c(OC)c(OC)c32)cc1 (stereo not given),-28%&-21%
CCc1ccc2c(c1)C(NC(C)=O)C(=O)N2CC (stereo not given),-2%
CC(Oc1ccc(Cl)cc1)c1ccnn1S(C)(=O)=O (stereo not given),-14%
Nc1c(C(=O)CSc2n[nH]c(-c3ccccc3Br)n2)c(=O)[nH]c(=O)n1C1CC1,-1%
CCn1c2ccccc2c2cc(NC(=O)C(=O)N3CCOCC3)ccc21,-10%
O=C(NCc1ccccc1)Nc1cc(Cl)ccc1Cl,-2%
COc1ccc(Oc2c(C)oc3c(CN(C)C)c(O)ccc3c2=O)cc1,4%
O=C(NCC1CCCO1)C1c2ccccc2C(=O)N1C1CCCCCCC1 (stereo not given),-16%
CCS(=O)(=O)n1nc(-c2ccco2)nc1SC,?
Cc1[nH]nc(Nc2ccc(Br)cc2)c1[N+](=O)[O-],-35%
O=C(N/N=C/c1ccco1)c1cc(-c2ccc(Br)s2)[nH]n1,12%
C/C(=N\NC(=O)c1cccc(S(=O)(=O)N2CCOCC2)c1)c1cc2ccccc2o1,-9%
CN(C(=O)c1ccc(N2CCOCC2)c([N+](=O)[O-])c1)C1CCCCC1,-3%
COc1cc(OC)c(NC(=O)N2CCc3cc(OC)c(OC)cc3C2CC(=O)O)cc1Cl (stereo not given),5%
CCOC(=O)c1sc(NC(=O)CSCc2c(C)noc2C)nc1C,-12%
CN(Cc1cnn(C)c1)C(=O)C1CCC(=O)N(C2CCCCCC2)C1 (stereo not given),-3%

Quoted from the listing:
Under VDR inhibitor, `O=C(Cc1ccc(-c2ccccc2)cc1)NCCS(=O)(=O)N1CCN(c2ccccc2)CC1` is listed with 3%
Under VDR inhibitor, `O=C(N/N=C/c1ccccc1)c1c(O)c2ccccc2[nH]c1=O` is listed with -2%

Next results follow:
canonical_smiles,VDR inhibitor
Nc1cc(Cl)ccc1N1CCCC1,-27%
Cc1ccc(S(=O)(=O)C(F)(F)F)cc1NC(=O)c1cccnc1,-8%
CCC(=O)N1CCc2cc(S(=O)(=O)NCCC(=O)Nc3ccc(OC)cc3)ccc21,11%
Cc1[nH]c2ccccc2c1C(=O)CSc1ccc(Cl)cc1,?
CCOc1cc(S(=O)(=O)N2CCCCC2)ccc1Cl,-26%
Fc1ccc(Cn2c(SCc3ccc(F)c(F)c3)nnc2C(F)(F)F)cc1,-8%
CCN1CCN(c2ccc(NC(=O)c3cccc(N4CCCC4=O)c3)cc2)CC1,-18%
CNS(=O)(=O)c1cc(Cl)ccc1Sc1ccccc1C(=O)O,4%
O=C(Cc1cc(=O)[nH]c(=O)[nH]1)N1CCN(C(=O)c2ccco2)CC1,0%
COc1ccc(C(C)(C)C)cc1S(=O)(=O)N1CCC(C(N)=O)CC1,-15%
Cc1cccc(CC(=O)Nc2ccc(C(=O)N3CCOCC3)cc2)c1,-22%
CCOC(=O)C1CCCN(C(=O)c2ccc3c(c2)OCO3)C1 (stereo not given),-3%
COc1cccc(OCCNC(=O)c2ccccc2Sc2ccccc2C#N)c1,-1%
CC(=O)C(Cc1cccc(F)c1)(Cc1cccc(F)c1)C(C)=O,-2%
CC1CC(C)CN(CCOc2ccccc2-c2ccccc2)C1 (stereo not given),-4%

3 entries out of the list above, ordered by the number in VDR inhibitor, largest number first:
canonical_smiles,VDR inhibitor
CNS(=O)(=O)c1cc(Cl)ccc1Sc1ccccc1C(=O)O,4%
CCOC(=O)C1CCCN(C(=O)c2ccc3c(c2)OCO3)C1 (stereo not given),-3%
Cc1ccc(S(=O)(=O)C(F)(F)F)cc1NC(=O)c1cccnc1,-8%

Further results follow.
canonical_smiles,VDR inhibitor
CC(/C=N/N1CCN(Cc2ccccc2)CC1)=C\c1ccccc1,2%
Cc1cc(C)n(C(=O)CNC(=O)C(c2ccccc2)c2ccccc2)n1,17%
C#CCOCCOCCOCCNc1nc(N2CCN(C(=O)[C@H]([C@@H](C)CC)n3cc(CCCN=C(N)N)nn3)CC2)nc(N2CCN(C(=O)[C@H]([C@@H](C)CC)n3cc(CCC(=O)O)nn3)CC2)n1,-24%
CCOC(=O)C1CC(c2ccccc2)=NNC1=O (stereo not given),16%
Cc1cc(C)c2oc(-c3cccc(NC(=O)c4ccc(-c5cccc([N+](=O)[O-])c5)o4)c3)nc2c1,-2%
Cc1cccc(NC(=O)NCc2ccc3c(c2)cc(C)n3C)c1,-11%
Cc1ccccc1OCC(=O)Nc1ccc2[nH]ncc2c1,3%
CC(NC(=O)c1ccccc1Cl)c1ccc(-n2ccnc2)cc1 (stereo not given),13%
O=C(O)c1ccc(CNc2ncnc3nc[nH]c23)cc1,-27%
O=C(O)C1CCCCC1C(=O)NCCc1cccc(Cl)c1 (stereo not given),10%
O=C(COC(=O)c1ccc(Cl)nc1)NNC(=O)c1ccc(Br)cc1,0%
Cc1cc(C)nc(SCC(=O)Nc2ccc(N3CCOCC3)c(Cl)c2)n1,-6%
O=C1CCN(C(=O)/C=C/c2ccccc2)c2ccccc21,10%
CCOC(=O)N1CCC(c2cc(=O)n3[nH]c(-c4ccccc4)cc3n2)CC1,-17%
O=C(NCCCN1CCCC1=O)c1ccc(CNS(=O)(=O)c2ccc(F)cc2)cc1,14%
Cc1ccc(CN2CCSc3ccc(C(=O)N4CCN(c5cccc(C)c5C)CC4)cc32)cc1,-19%
COc1cc(OC)cc(C(=O)NCc2cc(C)nc3ccccc23)c1,5%
N=C(CC1CC(=O)NC(=O)C1)C1=C(O)CCCC1=O,-13%
Cn1cccc1C(=O)N1CCC2(CC1)CCN(c1ccccn1)CC2,1%
Cc1cc(C)n2ncnc2n1,9%
COc1ccccc1C(=O)NCc1nnnn1-c1ccc(C)c(C)c1,-8%
Cc1ccccc1NC(=O)CN1C(=O)S/C(=C\c2ccc(-c3cc(C(=O)O)ccc3C)o2)C1=O,12%
CC(C)CCN(C)C1CCN(S(=O)(=O)c2ccc(F)cc2)CC1,-1%
COc1cc(OC)c(NC(=O)N2CCc3c(sc4c3CCCC4)C2c2ccccc2)cc1Cl (stereo not given),-1%
Cn1nnnc1SCC(=O)Nc1cccc(S(=O)(=O)N2CCCC2)c1,-6%
Cc1ccc(C)c(CN2C(=O)CSc3ccc(C(=O)NCC(C)CN4CCC(C)CC4)cc32)c1 (stereo not given),-8%
CN(C)Cc1ccccc1Sc1ccccc1Br,-3%
NC(N)=NS(=O)(=O)c1ccc(NC(=S)Nc2ccc(F)cc2)cc1,-19%
Cn1c(C(=O)NCc2ccc3c(c2)OCO3)cc2sccc21,-5%
COc1cccc(CNC(=O)C2CCCN(c3cnccn3)C2)c1 (stereo not given),-17%

The final 7 records of the section above lead into the next:
canonical_smiles,VDR inhibitor
COc1cc(OC)c(NC(=O)N2CCc3c(sc4c3CCCC4)C2c2ccccc2)cc1Cl (stereo not given),-1%
Cn1nnnc1SCC(=O)Nc1cccc(S(=O)(=O)N2CCCC2)c1,-6%
Cc1ccc(C)c(CN2C(=O)CSc3ccc(C(=O)NCC(C)CN4CCC(C)CC4)cc32)c1 (stereo not given),-8%
CN(C)Cc1ccccc1Sc1ccccc1Br,-3%
NC(N)=NS(=O)(=O)c1ccc(NC(=S)Nc2ccc(F)cc2)cc1,-19%
Cn1c(C(=O)NCc2ccc3c(c2)OCO3)cc2sccc21,-5%
COc1cccc(CNC(=O)C2CCCN(c3cnccn3)C2)c1 (stereo not given),-17%
C=CCN1C(=O)N(c2ccccc2)C(=O)C1CC(=O)Nc1ccc(OC)cc1 (stereo not given),-14%
CN(c1ccccc1)S(=O)(=O)c1cc(C(=O)OCC(=O)c2c(N)n(C)c(=O)n(C)c2=O)ccc1Cl,-18%
COc1ccc(/C=C/c2c([N+](=O)[O-])c(=O)n(C)c(=O)n2C)c(OC)c1OC,-10%
COc1cc2c(cc1OC)C(C)N(C(=O)c1nccnc1C(=O)O)CC2 (stereo not given),-6%
CCOC(=O)C1=C(C)N2C(=C(C#N)[C@@H]1c1ccc(C(=O)OC)cc1)SC[C@@]2(O)C(C)(C)C,-6%
COC(=O)C1C2C=CC3(CN(C4CCCC4)C(=O)C13)O2 (stereo not given),-17%
Cn1c(NCc2ccc(Cl)cc2)nc2ccccc21,5%
COc1cc(C2CC(=O)Oc3cc(C)cc(C)c32)cc(OC)c1OC (stereo not given),13%&-4%
CCOC(=O)c1c(NC(=O)CSc2nc3ccccc3[nH]2)sc2c1CC(C)(C)NC2(C)C,-2%
CC1=CC(C)C(C(=O)O)C(C(=O)O)C1 (stereo not given),3%
CC1=Nc2ccccc2/C1=C/c1c(N)n2c(S(=O)(=O)CC(C)C)nsc2nc1=O,2%
COC(=O)c1ccc(CSc2nc3c([nH]c4ccccc43)c(=O)n2-c2ccc(OC)cc2)o1,5%
Cc1noc(/C=C/N(C)C)c1S(=O)(=O)N(C)Cc1ccc(F)cc1,?
COC(=O)c1scc(S(C)(=O)=O)c1-n1cccc1,-13%
CN(C)S(=O)(=O)c1cccc(NC(=O)COC(=O)CNC(=O)c2ccccc2F)c1,8%
CC12CC3CC(C)(C1)CC(C(=O)NC1=NCCS1)(C3)C2,5%
COc1ccc(C(=O)Nc2ccc(S(=O)(=O)N3CCN(C)CC3)cc2)cc1[N+](=O)[O-],-6%
Cc1nn(-c2ccccc2)c(C)c1N,-21%
COc1ccccc1CNC(=O)C1CCCN(S(=O)(=O)c2cnc[nH]2)C1 (stereo not given),-15%
CCCn1c(N)c(N(CCOC)C(=O)c2ccc(-c3ccccc3)cc2)c(=O)[nH]c1=O,4%
Cc1noc(C)c1S(=O)(=O)N(CC(=O)NCc1ccc(F)cc1)c1ccc(C(C)C)cc1,18%
CCC1(C)Cc2ccccc2-c2nc3n(c(=O)c21)CCCCC3 (stereo not given),15%
O=C(N/N=C/c1ccco1)c1cccc(N2CCCC2=O)c1,-22%
CC(=O)Nc1ccc(Nc2ccc([N+](=O)[O-])cn2)cc1,-7%
COc1cccc(-c2nc(CS(=O)(=O)CC(=O)Nc3cccc(C(C)=O)c3)c(C)o2)c1,?
COc1ccc(-c2nnc(SCC(=O)Nc3ccc(C(C)C)cc3)nc2-c2ccc(OC)c(OC)c2)cc1OC,13%
CCCN1CCN(CCCNC(=O)c2cc3c(=O)n(C)c4ccccc4c3n2C)CC1,-18%
CCCCC/C=C\C/C=C\C/C=C\CCCCC(=O)NCC(=O)O,-7%
C=CCNC(=S)NS(=O)(=O)c1cccs1,-15%
CN(CC1COc2ccccc2O1)C(=S)NC1CCCCC1 (stereo not given),10%

Screening data: PubChem BioAssay, National Center for Advancing Translational Sciences (NCATS)
